Assay outcomes (PubChem)
VDR inhibitor: blocks the human vitamin D receptor; P11473; VDR-SRC2-3 peptide fluorescence polarization, 2 h; Potency, µM, without a hit: max response, negative = inhibition, most hits filed as inhibitors; 400,000 tested, 0.93% active; AID 504847; active means well fitted inhibition curve with a large enough effect; inconclusive means small, poorly fitted or top-dose-only effect, or another doubt; inactive means no such curve, though single readings can be large or run the other way; further: series mostly up to about 120 µM
Target sequence (P11473 whole entry, looked up): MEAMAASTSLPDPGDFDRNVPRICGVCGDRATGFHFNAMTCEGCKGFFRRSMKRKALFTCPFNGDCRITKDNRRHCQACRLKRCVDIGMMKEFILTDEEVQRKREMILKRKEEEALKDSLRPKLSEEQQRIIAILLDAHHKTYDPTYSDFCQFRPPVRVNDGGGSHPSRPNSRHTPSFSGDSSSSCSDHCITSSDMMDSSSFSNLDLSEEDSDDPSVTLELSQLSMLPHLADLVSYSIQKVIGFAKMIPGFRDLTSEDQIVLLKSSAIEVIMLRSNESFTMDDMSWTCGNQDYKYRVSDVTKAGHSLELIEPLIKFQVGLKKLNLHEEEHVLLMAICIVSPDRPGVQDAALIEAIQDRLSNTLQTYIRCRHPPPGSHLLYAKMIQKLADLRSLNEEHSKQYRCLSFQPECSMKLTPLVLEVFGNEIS
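Two reagent solutions held at 4 deg C in the dark were dispensed, compounds pinned at 23 nl, and the mixture incubated 2 h at room temperature. Read-out: fluorescence polarization of VDR–SRC2-3 peptide binding.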
An asterisk follows results filed as active; u = inconclusive. On the % scale 0 is the no-effect control and ±100 the full control effect; potency means the concentration at half of the fitted maximal effect.

SMILES	VDR inhibitor
N#Cc1cccc(NC(=O)N2CCC(c3nc4c(nnn4Cc4cccc(Cl)c4)c(=O)[nH]3)CC2)c1	-2%
CCOC(=O)C1(Cc2ccccc2C(F)(F)F)CCN(CCCn2cccn2)CC1	-7%
CCOCCCNC(=O)Cn1nc(C)n2c(cc3cc(C)ccc32)c1=O	2%
Cc1ccccc1-c1nnc(SCC(=O)NCc2ccc3c(c2)OCO3)n1C	20%
CN(C)C(=O)CSCc1c(Cl)cccc1Cl	-2%
CC(C)=CCCC(C)N(C=O)C(C)CCC=C(C)C (configuration not stated)	14%
Cc1cc(C)c(NC(=O)Nc2ccccc2)c(C)n1	11%
C=CCSc1nnc(-c2sc(-c3ccccc3)nc2C)n1C	11%
CCOC(=O)/C=C1\CN(C(C)c2ccccc2)S(=O)(=O)c2ccccc21 (configuration not stated)	-9%
CCCCNS(=O)(=O)c1cc2c3c(c1)CCN3C(=O)CC2	3%
CC(=O)Nc1ccc(OCCOc2ccc([N+](=O)[O-])cc2)cc1	-6%
COc1ccccc1CNC(=O)CCC1N=C2c3ccccc3N=C(SCC(=O)NCC3CCCO3)N2C1=O (configuration not stated)	7%
Cc1cnc(NC(=O)c2cccc(S(=O)(=O)N3CCOCC3)c2)s1	1%
CC(C)(C)NS(=O)(=O)c1ccc(NC(=O)c2cc(-c3ccccc3)nc3ccccc23)cc1	-11%
CNc1ccc(Oc2nc([N+](=O)[O-])nn2C)cc1	-8%
CCOC(=O)c1ccc(N2C(=O)C3CCOc4ccccc4C32)cc1 (configuration not stated)	-4%
CCOc1ccc(Nc2cc(C)nc3ccc(C)cc23)cc1	5%
Cc1ccc(Cn2c(SCC(C)C)nc3c2c(=O)[nH]c(=O)n3C)cc1	-12%
Cc1c(C(=O)NCC(c2ccco2)N2CCCC2)sc2ccccc12 (configuration not stated)	0%
COc1ccc(CCNC(=O)C(=O)NCc2ccccn2)cc1	u
CC(=O)c1ccc(NC(=O)/C=C/c2ccc(C)cc2)cc1	-23%
c1ccc(CN2CCN(CCCNc3ccc4nnc(-c5ccccc5)n4n3)CC2)cc1	14%
O=C(Nc1cccc(OCC(=O)N2CCOCC2)c1)c1cccc(Cl)c1	-4%
Cc1ccc(CNC(=O)C2CC(c3ccccc3C(F)(F)F)=NO2)cc1 (configuration not stated)	-14%
O=C(Cc1cccs1)Nc1ccc(S(=O)(=O)N2CCCCC2)cc1	28%
CC1CC(C)(C)NC(=S)N1CC(=O)NCc1ccc(Cl)cc1 (configuration not stated)	-12%
CCN(c1cccc(C)c1)S(=O)(=O)c1nnc(NC(=O)c2cccs2)s1	6%
CN(Cc1ccccc1)C(=O)COC(=O)c1cc2ccccc2oc1=O	-18%
COc1ccc(C2CC(c3ccc(Cl)cc3Cl)Nc3nc(N)nn32)cc1 (configuration not stated)	-20%
COc1ccc(OC)c(CNC(=O)C2CCCCN2S(=O)(=O)c2ccc(F)cc2)c1 (configuration not stated)	5%
COc1ccc(CNc2nc(-c3ccc(C(=O)N(C)C)cc3)nc3ccccc23)c(OC)c1	-11%
CCn1c(CSc2nc3ccccc3s2)nnc1SCC(N)=O	-2%
C=CCNc1nc(C(=O)OCC(=O)c2ccc(Cl)cc2)cs1	-15%
COc1ccc(NC(=O)CSc2cn[nH]n2)c(OC)c1	-9%
CCN(CC)C(=S)NC(=O)c1cccnc1	-2%
C/C(=N/NC(=O)c1cccc(Br)c1)C1CC2CCC1C2 (configuration not stated)	-1%

An excerpt of these results, with values ahead of the structure:
| VDR inhibitor | Molecule |
| --- | --- |
| -9% | COc1ccc(NC(=O)CSc2cn[nH]n2)c(OC)c1 |
| -2% | CCN(CC)C(=S)NC(=O)c1cccnc1 |
| -11% | COc1ccc(CNc2nc(-c3ccc(C(=O)N(C)C)cc3)nc3ccccc23)c(OC)c1 |
| -1% | C/C(=N/NC(=O)c1cccc(Br)c1)C1CC2CCC1C2 (configuration not stated) |

Additional entries.
SMILES	VDR inhibitor
CCN1C(=O)CSc2ccc(C(=O)NCc3ccccc3)cc21	7%
Cc1ccc(-n2ncc(C(=O)NCc3ccc4c(c3)OCO4)c2C2CCN(C(=O)OC(C)(C)C)CC2)cc1C	4%
O=C(c1ccc(Cl)cc1)c1ccc(OCC(O)CN2CCOCC2)cc1 (configuration not stated)	-20%
COc1ccc(NC(=O)c2ccccc2-c2ccccc2)c(C)c1	0%
COC(=O)c1cccnc1-n1c(=O)c2cccnc2n(Cc2ccc(Cl)cc2)c1=O	23%
CN(CC(=O)Nc1cccc(F)c1)C(=O)c1ccc(-c2ccc(Cl)cc2)o1	-5%
CC1(CC(=O)Nc2ccccc2)NC(=S)N(c2ccccc2)N1 (configuration not stated)	-7%
CC(C)CC(=O)C1CCCN(C(=O)c2ccc3oc(Cc4ccccc4)nc3c2)C1 (configuration not stated)	3%
O=C(NNC(=O)c1cc(-c2ccccc2Cl)nc2ccccc12)c1csc(N2CCOCC2)n1	-8%
COc1ccc(NC(=O)Cc2ccc(C)c(C)c2)cc1Cl	-6%
Nc1ccc(C2(c3ccc(N)cc3)c3ccccc3C(=O)c3ccccc32)cc1	-6%
CCOc1ccccc1NC(=O)C(=O)NCCc1sc2nc(-c3ccc(OC)cc3)nn2c1C	5%
C/C(Cl)=C\C[N+](C)(C)CC(=O)OCCc1ccccc1	-11%
Cc1oc(-c2ccccc2F)nc1CSCC(=O)NCCc1ccccc1	-11%
CCOC(=O)c1cc(S(=O)(=O)NCc2ccco2)cn1C	-20%
O=C(CCn1cccc1)Nc1ccc(F)cc1	-1%
CN(Cc1cccc2ccccc12)C(=O)c1cc(COc2c(F)cccc2F)on1	-14%
CC1(C(=O)NCCc2c[nH]c3ccccc23)C=CC2(CCCCC2)N1C(=O)c1ccccc1 (configuration not stated)	-17%
COc1ccc(S(=O)(=O)c2cn(CC(=O)Nc3cc(C)ccc3C)c3ccccc3c2=O)cc1	4%
COc1cccc(Cc2nc3ccccc3nc2SCC(=O)Nc2cc(OC)ccc2OC)c1	-1%
O=C(NCCCO)C(=O)NCC1OCCCN1S(=O)(=O)c1cccs1 (configuration not stated)	-10%
Cc1cc([N+](=O)[O-])nn1CC(=O)N1N=C(C(F)F)CC1(O)C(F)F (configuration not stated)	-14%
CCOC(=O)CC(=O)Nc1nc2ccccc2s1	5%
CC(C)C(=O)NCCSc1c[nH]c2ccccc12	11%
CC(CCCC(C)(C)O)NCc1cn[nH]c1-c1ccc2c(c1)OCO2 (configuration not stated)	21%
CCCCC1C(=O)CC[C@H]2[C@@H]1CC(=O)[C@@H]2C/C=C\CCCC(=O)O (some centres not stated)	u
Cc1cccc(Cl)c1NC(=S)N1CCN(c2ccc([N+](=O)[O-])cn2)CC1	-17%
COc1ccc(F)cc1S(=O)(=O)NCCc1c(C)[nH]c2c(Cl)cccc12	-1%
O=C(CSc1nc2ncc(Br)cc2[nH]1)Nc1ccc2c(c1)OCO2	-12%
CCN(CC)c1ccc(NC(=O)CCCCCN2C(=O)c3ccccc3C2=O)cc1	2%
CCOC(=O)c1c(NC(=O)c2cc3nc(-c4ccccc4)cc(C(F)(F)F)n3n2)sc2c1CCC(C)C2 (configuration not stated)	-7%
Cn1c(SCC(=O)N2CCCc3ccccc32)nnc1-c1c[nH]c2ccccc12	4%
CCCCNCc1cc(Cl)c(OCCC)c(OCC)c1	-4%
CCOC(=O)c1c(-c2ccccc2Cl)cn2ccccc12	-7%
CCCCc1c(O)n(-c2ccccc2)[nH]c1=O	-3%
Cc1cc(NC(=O)C2CCCN(S(=O)(=O)c3cccc4nonc34)C2)ccc1Br (configuration not stated)	-11%
CC(C)c1ccc(/C=N/NC(=O)CCNC(=O)c2ccccc2)cc1	-3%
CC(=O)Nc1cc(-c2nc3ccccc3s2)ccc1C	-1%
CCSCC1COC(c2cccn2Cc2ccc(C)cc2)=N1 (configuration not stated)	19%
O=C(COC(=O)c1ccc(S(=O)(=O)N2CCCC2)cc1)NCc1ccc(F)cc1	-13%
Cn1c2ccccc2c(=O)c2c(=O)n(Cc3ccco3)c(COc3ccccc3)nc21	3%
COc1ccc(C2=Nc3ccccc3OC2)cc1	-18%
CC1Sc2ccc(S(=O)(=O)N3CCC(C(=O)Nc4ccc(Cl)cc4)CC3)cc2NC1=O (configuration not stated)	0%
C=CCn1c(SCC(=O)Nc2c(C)n(C)n(-c3ccccc3)c2=O)nnc1-c1cccnc1	-2%
Cn1c(=O)[nH]c(=O)c2c1nc(N1CCCCCC1)n2CCOc1ccccc1	-5%
COC(=O)c1[nH]c2cc(OC)ccc2c1NC(=O)CN1CCN(c2cccc(C)c2)C(C)C1 (configuration not stated)	-1%
COC(=O)C1=C(C)NC(=O)NC1c1ccc(-c2ccc(Cl)cc2)o1 (configuration not stated)	-15%
O=C1CCC(C(=O)Nc2cccc3ccccc23)N1 (configuration not stated)	-3%
Cc1ccc(C(=O)N2CC3(C(C)C)CN(C(=O)c4ccc(C)cc4)CC(C(C)C)(C2)C3=O)cc1	1%
N/C(COc1ccc(F)cc1)=N\NC(=O)c1cccnc1Oc1ccccc1	13%
O=C1CCCC(O)=C1N=Nc1c(Cl)cc(Cl)cc1Cl	-17%
O=C(NN1C(=O)NC2(CCCCC2)C1=O)c1ccc(Cl)c(Cl)c1	9%
CCCCNS(=O)(=O)c1ccc(NC(=O)c2c(-c3ccccc3Cl)noc2C)cc1	10%
O=C(O)CC/C=C\C[C@@H]1CO[C@H](c2ccccc2Cl)O[C@@H]1c1ccccc1O	22%
Cc1ccc(Cl)cc1N1CCN(S(=O)(=O)c2ccc(-c3cnc(C4CC4)o3)cc2)CC1	3%
Cc1onc(-c2c(F)cccc2Cl)c1C(=O)NNC(=O)C1CCN(Cc2cccc(F)c2)CC1	0%
CCOCCCNC(=O)C(c1ccc(OC)cc1)N(Cc1ccc2c(c1)OCO2)C(=O)c1ccc(NC(C)=O)cc1 (configuration not stated)	-1%
CCC(C)OC(=O)C1=C(C)NC(=O)CC1c1ccccc1OC (configuration not stated)	1%
O=S(=O)(/N=C(/c1ccccc1Cl)N1CCOCC1)c1ccccc1	-4%
O=C(N1CCOCC1)N1CCN(C(c2ccccc2)c2ccccc2)CC1	7%

Filtered by structure, the compounds so far with two or more sulfur atoms.
SMILES	VDR inhibitor
C=CCSc1nnc(-c2sc(-c3ccccc3)nc2C)n1C	11%
Cc1cnc(NC(=O)c2cccc(S(=O)(=O)N3CCOCC3)c2)s1	1%
O=C(Cc1cccs1)Nc1ccc(S(=O)(=O)N2CCCCC2)cc1	28%
CCN(c1cccc(C)c1)S(=O)(=O)c1nnc(NC(=O)c2cccs2)s1	6%
CCn1c(CSc2nc3ccccc3s2)nnc1SCC(N)=O	-2%
O=C(NCCCO)C(=O)NCC1OCCCN1S(=O)(=O)c1cccs1 (configuration not stated)	-10%
CC1Sc2ccc(S(=O)(=O)N3CCC(C(=O)Nc4ccc(Cl)cc4)CC3)cc2NC1=O (configuration not stated)	0%

Following part.
SMILES	VDR inhibitor
CC(C)C(NC(=O)c1ccco1)C(=O)NCC(c1ccco1)N1CCCCC1 (configuration not stated)	9%
CCCOc1ccc(C2C(C(=O)/C=C/c3ccco3)=C(O)C(=O)N2CCN2CCOCC2)cc1OC (configuration not stated)	-14%
CS(=O)(=O)N1N=C(c2cccs2)CC1c1ccccc1 (configuration not stated)	-1%
O=C(Nc1ccc(F)cc1)Nc1nnc(Cc2ccccc2F)s1	71µM*
Cc1nnc(N/N=C/C(C)c2ccccc2)[nH]c1=O (configuration not stated)	6%
O=C(Nc1cccc(Cl)c1)c1cc(N=Nc2ccc([N+](=O)[O-])cc2Cl)ccc1O	-13%
COc1ccc(-c2c([C@H]3[C@H]4C=CC[C@@H](C)[C@@H]4C(=O)N3Cc3ccccc3)ccc3ccccc23)cc1	5%
CCCC(C)NC(=O)COC(=O)c1ccc(Cl)c(S(N)(=O)=O)c1 (configuration not stated)	12%
Cc1c(N2C(=O)/C(=C/c3ccc(N(C)C)cc3)N(C)C2=S)c(=O)n(-c2ccccc2)n1C	9%
COc1ccc(OCCCn2ccnc2)cc1	-12%
CCn1c(CNC(=O)c2ccc3c(c2)OCO3)nnc1SCC(=O)Nc1ccccc1F	-1%
C/C(Cc1ccccc1)=N\NC(=O)CNC(=O)Cc1ccc(Cl)cc1	-2%

Reprinted from the entries so far (4 entries):
SMILES	VDR inhibitor
Cc1c(N2C(=O)/C(=C/c3ccc(N(C)C)cc3)N(C)C2=S)c(=O)n(-c2ccccc2)n1C	9%
COc1ccc(OCCCn2ccnc2)cc1	-12%
CCn1c(CNC(=O)c2ccc3c(c2)OCO3)nnc1SCC(=O)Nc1ccccc1F	-1%
C/C(Cc1ccccc1)=N\NC(=O)CNC(=O)Cc1ccc(Cl)cc1	-2%

(cont.)
SMILES	VDR inhibitor
O=C1NC2(CCCCC2)C(=O)N1c1cccc(Cl)c1	-21%
CCc1cc2ccc(OC)cc2nc1SCC(=O)NNC(=O)c1ccco1	-15%
COc1ccc(CNC(=O)CN2c3ccccc3S(=O)(=O)c3ccccc32)cc1	6%
CCCCCCCN1C(Nc2ccccc2)=NC[C@@H]1C	0%
CC(=O)Nc1ccc(SCCC2CCCCN2C)cc1 (configuration not stated)	-9%
COc1ccc(N2CCN(CC(=O)N3N=CCC3c3ccccc3)CC2)cc1 (configuration not stated)	10%
COc1ccc(-n2c(Cc3cc(=O)[nH]c(=O)[nH]3)nnc2SCC(=O)NC2CCCC2)cc1	15%
N#Cc1nc(-c2ccc(COc3ccc(Cl)cc3)o2)oc1N1CCC(C(N)=O)CC1	-5%
CCOC(=O)C1=C(O)C(=O)C(C(=O)OCC)C1 (configuration not stated)	-14%
O=C(NCc1cccc(Cl)c1)C1CCC(=O)N(CC2CCCCC2)C1 (configuration not stated)	-2%

These rows are one share of the data; count on the stated rates, not on these rows.
